Mtb growth: M. tuberculosis H37Rv growth inhibitors, H37Rv strain (AID 1626); one-dose inhibition, % at 10 µM; IC50 in µM for titrated hits; M. tuberculosis H37Rv growth inhibition; higher % means a stronger effect; actives 0.95% (n = 220,000);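 active = confirmed in a dose series; inconclusive = inhibition above 80% but not taken into the dose series; inactive = below 80% or under 30% at every dose of the series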;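 note: bacteria incubated seven days before Alamar blue readout; 0% = bacteria only wells and 100% = bacteria with antibiotic wells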
YopH PTP inh: inhibitors of Yersinia enterocolitica YopH tyrosine phosphatase; fluorescence Ex485/Em525; inhibition, %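 (about 10 µM by stock and volumes)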; actives 0.16% (n = 140,000); AID 898;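 active = inhibition of 50% or more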;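 note: controls were vehicle for no effect and minimum signal wells for full effect; inactives centre near -20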
Arbovirus inh: blocks arbovirus infection | arbovirus infection cell-based antiviral screen | inhibition, % at 10 µM | actives 0.37% (n = 200,000);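 active = inhibition from about 30%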;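 note: bluetongue infection of BSR cells; cell survival read as ATP light after 72 h; 0% = infected wells without compound and 100% = uninfected wells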
RecA splice inh: blocks M. tuberculosis RecA intein splicing. P9WHJ3. AID 2221. actives 0.75% (n = 290,000). cell-free RecA intein splicing, fluorescence. inhibition, %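 (about 9 µM by stock and volumes)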; in the data active = inhibition above about 30%; inconclusive = no clear call, values can overlap the other calls;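 note: 0% = vehicle wells and 100% = reference inhibitor control wells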
Target sequence (P9WHJ3 whole entry, looked up, canonical isoform): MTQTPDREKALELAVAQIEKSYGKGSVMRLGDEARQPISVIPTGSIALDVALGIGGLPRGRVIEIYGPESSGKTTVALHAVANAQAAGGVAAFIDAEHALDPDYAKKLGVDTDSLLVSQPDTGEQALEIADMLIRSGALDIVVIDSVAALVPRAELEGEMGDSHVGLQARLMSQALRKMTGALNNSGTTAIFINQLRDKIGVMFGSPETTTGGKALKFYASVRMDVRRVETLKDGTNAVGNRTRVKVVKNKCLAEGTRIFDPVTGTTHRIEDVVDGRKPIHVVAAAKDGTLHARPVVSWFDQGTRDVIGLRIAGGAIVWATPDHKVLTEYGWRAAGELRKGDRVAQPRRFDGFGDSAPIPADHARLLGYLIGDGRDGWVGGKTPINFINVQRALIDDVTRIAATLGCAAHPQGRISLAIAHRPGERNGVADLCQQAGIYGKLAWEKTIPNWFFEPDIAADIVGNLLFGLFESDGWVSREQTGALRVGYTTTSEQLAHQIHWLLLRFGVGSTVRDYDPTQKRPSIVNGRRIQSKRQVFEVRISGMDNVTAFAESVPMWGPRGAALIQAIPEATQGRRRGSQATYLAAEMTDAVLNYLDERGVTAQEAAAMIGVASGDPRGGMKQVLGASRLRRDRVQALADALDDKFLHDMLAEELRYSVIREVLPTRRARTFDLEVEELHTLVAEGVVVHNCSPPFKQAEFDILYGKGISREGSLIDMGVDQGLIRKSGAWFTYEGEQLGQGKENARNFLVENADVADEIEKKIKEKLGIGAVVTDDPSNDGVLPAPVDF
Mtb bLac sens: beta-lactam sensitization of Mtb H37Rv; inhibition, % at 25 µM; actives 0.27% (n = 330,000); M. tuberculosis H37Rv growth with meropenem, percent inhibition; hits of this screen are not shown here; AID 434955;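 active = about 74% or more and at least 40 points above the plate without the antibiotic, then above 30% in a dose series; inconclusive = first-round hits that could not be retested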;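 note: growth measured after seven days incubation then overnight dye step; 0% = bacteria only wells and 100% = bacteria with antibiotic; twin plates without the antibiotic show which effects depend on it; some results filed as inactive read as strong as hits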
Arbovirus inh repeat: also measured in Arbovirus inh; calls as there; inhibition, %; measured here: 10K subset replicate screen; many hits read low in the repeat;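 first of two repeat runs on a subset; 0% = infected and 100% = uninfected wells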
An asterisk follows results filed as active; ? = inconclusive; / = no result given. Not all compounds are listed; the hit share may differ from the screen's.

SMILES	Mtb growth	YopH PTP inh	Arbovirus inh	RecA splice inh	Mtb bLac sens	others
CCCn1c(=O)c(C(=O)NCc2ccc3c(c2)OCO3)c(O)c2ccccc21	/	/	/	-0.8	3
CC(/C=N/NC(=O)c1cccs1)=C\c1ccccc1	3%	/	-8	2.6	9
Nn1c(Cc2cccc3ccccc23)nnc1SCCOc1ccc(F)cc1	15%	6	-1	1.8	5
COc1ccccc1C1CCN(Cc2c(C)[nH]c3ccccc23)CC1	0%	/	/	-2.7	-3
CC(C)Oc1ccc(/C=N/NC(=O)C2CCCN2S(=O)(=O)c2ccc(Cl)cc2)cc1 (centres undefined)	5%	-20	10	4.6	3
Cc1nnc(SCC(=O)NC(=O)NCCC(C)C)s1	0%	/	17	-2.0	3
COc1ccc(S(=O)(=O)N(C)CC(=O)Nc2ccc3c(c2)OCO3)cc1	5%	-15	-8	7.1	0
CCOc1ccccc1CNC(=O)c1nn(CC)cc1[N+](=O)[O-]	-4%	-10	-4	-1.9	2
NS(=O)(=O)c1ccc(NC(=O)N[C@@H](Cc2ccccc2)C(=O)O)cc1	-4%	1	2	0.1	/
Cc1ccc(N(CC(=O)N2CCc3ccccc3C2)S(C)(=O)=O)cc1	/	/	/	-1.5	-6
Cc1nc2ccc(Cl)cc2c(-c2ccccc2)c1CC(=O)O	4%	-11	1	2.0	7
CC(=O)NCCNC(=O)C1CCCCN1S(=O)(=O)c1ccccc1 (centres undefined)	3%	/	-8	1.6	-12
OCC1CCCN(C(=S)Nc2ccc(OC(F)F)cc2)C1 (centres undefined)	-12%	-1	-8	-0.8	0
O=C(Oc1ccc(N2C(=O)C3C4CCC(C4)C3C2=O)cc1)c1ccco1 (centres undefined)	/	/	/	30*	-3
COC(=O)Nc1nc(-c2ccccc2)c(C(=O)c2ccc(Cl)cc2)s1	8%	-20	-22	4.7	-11
O=C(COC(=O)CCN=C1NS(=O)(=O)c2ccccc21)NC1CCCCCCC1	-8%	/	/	1.2	-7
CCOC(=O)N1CCN(S(=O)(=O)c2cn(C)c(=O)n(C)c2=O)CC1	/	/	/	0.7	8
CNC(=O)C1Cc2ccccc2CN1S(=O)(=O)c1ccc(OC)c(OC)c1 (centres undefined)	/	/	/	0.5	-6
CC(Sc1nc2cc([N+](=O)[O-])ccc2n1-c1cccc(C(F)(F)F)c1)C(=O)NC(N)=O (centres undefined)	3%	-19	-28	2.6	3
CC(NC(=O)COC(=O)Cc1ccc(-c2ccccc2)cc1)c1ccccc1 (centres undefined)	4%	-26	-1	2.3	4
CCOc1cccc(C(=O)Nc2ccc3c(c2)OCCO3)c1	/	/	/	9.2	3
O=C(CN(c1ccc(Cl)cc1)S(=O)(=O)c1ccccc1)N/N=C/c1ccco1	-10%	-8	-3	0.8	-22
O=C(COC(=O)COc1ccc(Cl)cc1)Nc1ccc(F)c([N+](=O)[O-])c1	8%	-23	2	0.2	8
Cn1c(CC(=O)Nc2ccccc2F)nnc1SCC(=O)Nc1nncs1	/	/	/	0.1	7
CCOC(=O)C1=C(COC(=O)COc2ccc(C(=O)CC)cc2)NC(=O)NC1C (centres undefined)	/	/	/	-1.8	1
O=C1N(Cc2ccccc2F)c2ccccc2C12OCCCO2	-2%	-1	2	0.9	2
CCc1ccc(CN2CCSCC2)cc1	/	/	/	-1.2	0
COC(=O)C1=C(O)CSC1=Nc1ccc(C)cc1	1%	-23	7	-3.0	3
CCN(CC)S(=O)(=O)c1ccc(NC2c3ccccc3C(=O)N2CCN2CCOCC2)cc1 (centres undefined)	-2%	-16	-1	3.1	-4
C1=C(c2ccco2)N2CCN=C2S1	/	/	/	-1.7	-4
CC(CCc1ccc(O)cc1)NCc1ccc(Cl)cc1Cl (centres undefined)	/	/	/	0.7	-4
CCOc1ccc(-n2ccnc2SCC(=O)Nc2nnc(C)s2)cc1	-5%	-38	-9	0.5	3
COc1ccc(-c2nc(-c3ccccc3OC)no2)cc1OC	-2%	-24	19	1.4	60
CNC(=S)Nc1ccc(-c2nc3ccc(C)cc3s2)cc1	61%	/	-6	-1.8	73
COCCN(C(=O)CNC(=O)c1ccco1)C(C(=O)NC1CCCC1)c1ccccc1 (centres undefined)	/	/	/	2.4	6
CC(=O)Oc1ccc(Cl)cc1/C=C/c1cc(OC(C)=O)c2ccccc2n1	5%	-9	-6	1.1	17
C=C1c2cc(C)c(C)cc2NC(=O)N1c1ccccc1	-1%	/	/	/	-4
COC(=O)C1C2C=CC(C3CC23)C1C(=O)OCC(=O)c1ccccc1 (centres undefined)	-5%	18	8	-0.9	8
C#CCNC(=O)C1CCN(c2ccc(S(=O)(=O)N3CCOCC3)cc2Cl)CC1	-2%	/	-2	0.3	0
Cc1cc(S(=O)(=O)N2CCCC2)ccc1OCC(=O)N1CCC(C(N)=O)CC1	0%	/	-3	0.1	0
COc1ccc(CCN(C)C(=O)c2cnc(C)cn2)cc1OC	/	/	/	-3.5	-6
Cc1ccc(N2C(=O)CSC2c2ccccn2)cc1Cl (centres undefined)	-4%	14	3	-0.1	-2
Cn1c(=O)n(CCCO)c(=O)c2c1nc1n2CCCN1Cc1ccccc1	/	/	/	-1.0	7
Cc1cccc(-c2noc(CCCOc3ccc(Cl)cc3Cl)n2)c1	-7%	16	11	12	-4
O=C(c1nc2ncccn2n1)N1CCN(c2ccc(F)cc2)CC1	2%	-102	6	2.8	-4
C=CCNC(=O)CCC(=O)NNc1nc2ccccc2c2nc(-c3ccccc3)nn12	76%	/	-7	-0.4	80
COc1cc(-c2nnc(CSc3nc4ccccc4s3)o2)cc(OC)c1OC	14%	-13	-4	/	/
O=C(CCNC(=O)C1CCN(S(=O)(=O)c2ccccc2)CC1)NCc1ccc(Cl)cc1	/	/	/	-0.8	2
N#C/C(=C\c1sc(N2CCOCC2)nc1-c1ccccc1)C(=O)Nc1cccc2ccccc12	49%	-26	-33	/	/
CCc1ccc(NC(=O)c2ccccc2Br)cc1	7%	/	-5	0.1	78

(listing goes on)
SMILES	Mtb growth	YopH PTP inh	Arbovirus inh	RecA splice inh	Mtb bLac sens	others
CN(C(=O)COn1nnc2ccc(S(=O)(=O)N3CCOCC3)cc21)c1ccccc1	/	/	/	1.2	-11
CCOC(=O)c1c(-c2ccc(C)o2)csc1NC(=S)NC(=O)c1ccc(F)cc1	11%	-22	2	-0.5	1
NC(=O)Nc1ccc(Oc2ncc(C(F)(F)F)cc2Cl)cc1	0%	/	-6	2.5	-9
CNC(=O)c1cccn(Cc2cccc(C(F)(F)F)c2)c1=O	-5%	/	-14	-2.4	0
CCN(CC)C(=O)c1ccc(CS(=O)(=O)c2ccc(OC)cc2)o1	-13%	-5	8	/	-3	Arbovirus inh repeat=5
Cc1ccccc1-c1nnc(-c2ccc(Br)cc2)o1	-5%	-57	5	-0.8	6
CCOc1ccc(C(=O)Nc2nc(C)c(C(=O)OC)s2)cc1	6%	/	/	-1.2	4
CCN(CC)S(=O)(=O)c1ccc(NC(=O)Cn2c(=O)sc3ccccc32)cc1	-10%	-24	-1	4.1	3
Cc1nn(CC(=O)Nc2nccs2)c(C)c1[N+](=O)[O-]	-3%	/	-2	-0.4	-7
Cc1cc(Cl)ccc1C(=O)C1CCCN(C(=O)CCN2CCCO2)C1 (centres undefined)	1%	/	2	-2.1	-2

Of the compounds above, two contain a COOH group.
SMILES	Mtb growth	YopH PTP inh	Arbovirus inh	RecA splice inh	Mtb bLac sens	others
NS(=O)(=O)c1ccc(NC(=O)N[C@@H](Cc2ccccc2)C(=O)O)cc1	-4%	1	2	0.1	/
Cc1nc2ccc(Cl)cc2c(-c2ccccc2)c1CC(=O)O	4%	-11	1	2.0	7

(next part)
SMILES	Mtb growth	YopH PTP inh	Arbovirus inh	RecA splice inh	Mtb bLac sens	others
CC(C)CC(=O)NC(=S)Nc1cc(C(F)(F)F)ccc1N1CCOCC1	71%	-12	0	0.4	3
O=C(NCC1CCCO1)C1CCN(C2CCN(C(=O)CC3CCCC3)CC2)CC1 (centres undefined)	0%	/	3	/	-5
Nc1nonc1-c1nc2ccccc2n1CC(=O)N/N=C\c1ccc(-c2ccc(Cl)cc2)o1	39%	-27	0	2.4	40
COc1cccc(C(=O)Nc2cccc(-c3nc4ncccc4o3)c2C)c1	-2%	-2	5	-2.5	-10
CCn1nc(C)c(/C=N/NC(=O)Cc2ccc(Cl)cc2)c1C	0%	-14	-9	-2.8	0
Cc1ccc(-c2nnc(SCC(=O)Nc3sc(C)c(C)c3C#N)n2C)cc1	-2%	-17	4	-2.4	1
CC(C)C[C@H](NC(=O)N1CCn2c1nc1ccccc12)C(=O)N1CCCCC1	/	/	/	0.1	6
Cc1cn(C(=O)c2cccc(Br)c2)c(C)n1	-2%	-46	0	-0.9	-2
C[C@@H]1CC2(CCCC[N+]2(C)C)C[C@H]1C	3%	/	0	0.0	7
O=C(N/N=C/C(Cl)=C/c1ccc([N+](=O)[O-])cc1)C(=O)Nc1cccc(C(=O)O)c1	2%	/	/	5.1	4

Continued; the last 6 above are carried over.
SMILES	Mtb growth	YopH PTP inh	Arbovirus inh	RecA splice inh	Mtb bLac sens	others
CCn1nc(C)c(/C=N/NC(=O)Cc2ccc(Cl)cc2)c1C	0%	-14	-9	-2.8	0
Cc1ccc(-c2nnc(SCC(=O)Nc3sc(C)c(C)c3C#N)n2C)cc1	-2%	-17	4	-2.4	1
CC(C)C[C@H](NC(=O)N1CCn2c1nc1ccccc12)C(=O)N1CCCCC1	/	/	/	0.1	6
Cc1cn(C(=O)c2cccc(Br)c2)c(C)n1	-2%	-46	0	-0.9	-2
C[C@@H]1CC2(CCCC[N+]2(C)C)C[C@H]1C	3%	/	0	0.0	7
O=C(N/N=C/C(Cl)=C/c1ccc([N+](=O)[O-])cc1)C(=O)Nc1cccc(C(=O)O)c1	2%	/	/	5.1	4
C/C(=N\Nc1ncc(Cl)cc1Cl)c1cccs1	2%	/	2	-5.1	41
Cc1ccc(-c2nnc(CSc3nc(C(C)C)nc4sc(C)c(C)c34)o2)cc1	0%	-36	-8	2.1	3
COc1ccc(C2=NOC(C(=O)NCc3cccnc3)C2)cc1 (centres undefined)	/	/	/	0.3	1
COC(=O)c1c(NC(=O)c2ccc(OC(C)C)cc2)sc2c1CC(C)(C)NC2(C)C	/	/	-20	0.6	52
CCOc1ccc2nc(SCC#N)c(C#N)cc2c1	3%	-31	-14	-0.4	?
COc1cc(C(=O)NCC(=O)NCCN2C(=O)S/C(=C\c3ccc4c(c3)OCO4)C2=O)cc(OC)c1OC	/	/	/	1.5	-12
CC(C)C1CC(C(F)(F)F)n2nc(C(=O)O)cc2N1 (centres undefined)	-10%	/	4	-3.1	2
COc1ccccc1N1CCN(CC(O)COc2ccc(C)c(C)c2)CC1 (centres undefined)	/	/	/	-1.7	0
CC1CCN(C(=O)CCNC(=O)c2ccccc2Cl)CC1	/	/	/	1.5	-12
COc1cccc(CNC(=O)CCC2CCCN(C(=O)c3ccc(F)c(Cl)c3)C2)c1 (centres undefined)	/	/	/	18	?
COc1cc(CN(C)c2ncnc3sccc23)ccc1OC(F)F	/	/	/	5.0	7
COc1ccccc1NC(=O)C1=C(C)NC(=O)NC1c1cccc(OC)c1OC (centres undefined)	-8%	-51	1	0.4	0	Arbovirus inh repeat=5
COc1ccc(C(c2nnnn2C2CCCC2)N2CCC(C)CC2)c(OC)c1 (centres undefined)	-3%	6	-33	7.4	-5
O=C(NCC1CCCO1)c1c(O)nc2sccn2c1=O (centres undefined)	/	/	/	-1.1	3
O=C(CN(Cc1ccccc1)S(=O)(=O)c1ccccc1)N/N=C/c1ccccc1[N+](=O)[O-]	4%	-39	7	8.0	8
CCOC(=O)c1cnc2nc(NCc3ccc(OC)c(OC)c3)[nH]n2c1=O	-2%	-15	-1	2.4	20
N#CCCn1c(SCC(=O)c2c[nH]c3ccccc23)nc2ccccc21	2%	-43	-5	1.2	-2
COc1ccccc1N1CCN(C(=O)c2c(C)cc(=O)oc2C)CC1	8%	-24	-9	-0.3	0
O=C(CCCCCN1C(=O)CCC1=O)NCc1ccccc1	-6%	-30	3	2.7	-2
Oc1ccc(Cl)cc1C1=NCCNC(C(F)(F)C(F)F)=C1	-3%	-16	5	0.8	-1
C/C(=N/N1CCN(Cc2cccc3ccccc23)CC1)c1cccnc1	0%	/	-4	-0.8	3
O=C(C[n+]1cc2ccccc2c2ccccc21)c1ccccc1	7%	-35	1	1.7	-9
O=C(CCS(=O)(=O)c1ccc2c(c1)NC(=O)CS2)NCCc1ccccc1	/	/	/	-1.0	-4
O=C(COC(=O)c1cc(=O)[nH]c(=O)[nH]1)Nc1cccc(S(=O)(=O)N2CCOCC2)c1	6%	/	-1	3.8	-6
O=C(NCCn1cccn1)C1CCC(=O)N(CCc2ccccc2)C1 (centres undefined)	/	/	/	-1.0	-6
CCCCNc1c([N+](=O)[O-])cc(C)cc1[N+](=O)[O-]	4%	-36	-6	0.3	-3
Cc1cccc(NC(=S)N2CCC(NC(=O)C3CCCCC3)CC2)c1	/	/	/	-3.7	1

Screens: PubChem BioAssay, several laboratories
